Screens: PubChem BioAssay, National Center for Advancing Translational Sciences (NCATS)
TRPV1 PAM – potentiators of human vanilloid receptor 1 (TRPV1); Q8NER1; TRPV1-expressing cells, Fluo-8 calcium influx, capsaicin EC20 potentiation; host cell line not named in the record; control for the full effect not named in the record; potentiation, % at 8.33 µM; AID 540277; 320,000 compounds, 0.02% hits; active means potentiation above 80%; inconclusive means 30% to 80%; inactive means below 30%; also: 0% is about no effect
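Fluo-8 calcium influx in TRPV1-expressing cells, kinetic read (ex 480/em 520 nm). Compound added and read 3 min for agonist activity, followed by capsaicin at EC20 final and 2 min further read for enhancement.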
gsp agonist – activates gsp, the McCune-Albright syndrome mutation; gsp mutant cells, cAMP HTRF, 30 min; control for the full effect not named in the record; Potency, µM (doses to about 76.9 µM), inactives show top-dose activation (cAMP increase), hits mostly activators; 340,000 compounds, 0.13% hits; AID 624287; active = well fitted activation curve with a large enough effect; inconclusive = small, poorly fitted or top-dose-only effect, or another doubt; inactive = no such curve, though single readings can be large or run the other way; cell line not stated here;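 also: phosphodiesterase inhibitor Ro 20-1724 added with compounds to block cAMP breakdown; potency is read from the fitted curve at half-maximal effect; nearly all actives have a fitted effect of over 60% in size; about a fifth of the inactives were tested at one dose only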
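Cells stably selected in G418 were plated at 2000/well, grown 16-24 hr, then given compounds in DMSO with the PDE inhibitor […] (300 uM solution added) for 30 min at 37C; cAMP was read by HTRF.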
Menin MLL FP FL – displaces fluorescein MLL peptide from human menin; Fluorescence polarization, fluorescein-MLL peptide displacement from menin; FP activity change, % at 61.4 µM; 290,000 tested, under 10 active; AID 1766; inconclusive = falling polarisation curve, or a change in total fluorescence; inactive = total fluorescence flat and polarisation flat or rising; no compound was filed as active; the % refers to the polarisation; negative = inhibition;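 also: % of control where 0% means no effect; inhibitors lower the polarisation; unlabelled MLL peptide was the positive control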
gsp antagonist – antagonizes gsp, the McCune-Albright syndrome mutation; gsp-mutant cells, cAMP HTRF, 30 min; control for the full effect not named in the record; Potency, µM (series often up to 76.9 µM), without a hit: at the highest dose activity change, negative = inhibition, actives largely listed as inhibitors; 340,000 compounds, 0.4% hits; AID 624288; active = falling curve of any shape with a large fitted effect; inconclusive = falling curve, mostly with a smaller effect; inactive = flat or rising curve; cell line not stated here;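 also: intracellular cAMP measured with PDE inhibitor Ro 20-1724 present during compound exposure; potency is read from the fitted curve at half-maximal effect; % is scaled to controls: 0 for no effect and ±100 for the full control effect; nearly all actives have a fitted effect of over 65% in size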
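HTRF cAMP read-out (cAMP-d2 plus anti-cAMP antibody-K in lysis buffer, 30 min RT). Before lysis, cells are exposed to compounds with […] for 30 min at 37C in DPBS containing Ca/Mg, BSA and Tween 20.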
TRPML1 blocker – inhibitors of human TRPML1 channel; TRPML1-inducible cells, Ca2+ dye fluorescence, FDSS; active compounds read low; inhibition of EC80 agonist-evoked calcium signal; activity change, negative = inhibition, % (no concentration beside the values); 390,000 compounds, 0.02% hits; in the data active means activity change below about -50%; inconclusive means about -30% to -50%; inactive means above about -30%;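 also: stimulus is agonist 54-4 at its EC80 concentration; % is scaled to controls: 0 for no effect and ±100 for the full control effect; compound concentration not given in the record; the text of the record puts the active cut at -80%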
Target sequence (Q9GZU1 whole entry, looked up): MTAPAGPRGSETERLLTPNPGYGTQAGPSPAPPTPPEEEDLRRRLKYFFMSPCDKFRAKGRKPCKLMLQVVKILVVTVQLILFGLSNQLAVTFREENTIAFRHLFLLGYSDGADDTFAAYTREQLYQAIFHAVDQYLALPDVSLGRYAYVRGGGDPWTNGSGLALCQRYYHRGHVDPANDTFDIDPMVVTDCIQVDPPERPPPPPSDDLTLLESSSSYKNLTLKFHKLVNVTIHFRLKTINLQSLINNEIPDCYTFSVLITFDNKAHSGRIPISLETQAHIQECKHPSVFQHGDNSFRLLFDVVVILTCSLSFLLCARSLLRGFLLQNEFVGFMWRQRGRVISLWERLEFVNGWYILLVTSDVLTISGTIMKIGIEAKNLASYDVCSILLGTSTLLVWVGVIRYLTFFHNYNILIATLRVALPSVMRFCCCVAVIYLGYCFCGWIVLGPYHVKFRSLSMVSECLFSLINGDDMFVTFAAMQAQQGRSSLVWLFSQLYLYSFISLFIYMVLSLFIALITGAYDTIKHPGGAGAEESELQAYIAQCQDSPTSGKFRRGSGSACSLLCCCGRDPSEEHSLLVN
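Tet-induced TRPML1-DL cells loaded with Ca8 no-wash calcium dye were read kinetically on FDSS. Compound addition was followed by EC80 agonist 54-4 (4 uM final); inhibition was read over 110 s.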
Sfp PPTase inh – Sfp phosphopantetheinyl transferase inhibition; Biochemical Sfp PPTase activity, qHTS; Potency, µM, for inactives: max response, negative = inhibition, hits mostly inhibitors; 310,000 compounds, 3.5% hits; AID 1490; active = well fitted inhibition curve with a large enough effect; inconclusive = small, poorly fitted or top-dose-only effect, or another doubt; inactive = no such curve, though single readings can be large or run the other way;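 also: the enzyme is Sfp with the accession as filed and its product quenches rhodamine fluorescence; potency is read from the fitted curve at half-maximal effect; 0% = enzyme reaction without inhibitor and -100% = no enzyme wells; top concentration of the series not given in the record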
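Reaction rates are the 30-min fluorescence difference (ex 525, em 598 nm) in wells containing 15 nM Sfp, 5 uM rhodamine-CoA and 12.5 uM BHQ-2-YbbR at pH 7.6 with 10 mM MgCl2.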
ClpP mod – qHTS Assay for Activators of ClpP; Potency, µM (doses to about 57.5 µM), for inactives: at the highest dose activity change, negative = active; purified B. subtilis ClpP, FRET peptide cleavage, 20 min; 340,000 compounds, 1.9% hits; AID 651965, 2013; ATP-dependent Clp protease proteolytic subunit (Bacillus subtilis (strain 168)), P80244; active = well fitted falling curve with a large enough effect; inconclusive = small, poorly fitted or top-dose-only effect; inactive = no such curve, though single readings can be large or run the other way; also: potency is read from the fitted curve at half-maximal effect; the source files actives as falling curves though it sought activators and does not explain the sign; nearly all actives have a fitted effect of over 65% in size; many hits overshoot -100%
Target sequence (P80244 whole entry, looked up): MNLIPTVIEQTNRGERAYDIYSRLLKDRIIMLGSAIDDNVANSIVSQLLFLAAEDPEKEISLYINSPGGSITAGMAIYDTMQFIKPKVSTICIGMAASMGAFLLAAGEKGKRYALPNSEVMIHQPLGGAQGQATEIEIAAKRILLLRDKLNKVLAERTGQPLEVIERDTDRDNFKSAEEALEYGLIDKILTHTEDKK
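Purified B. subtilis ClpP, 10 microg/mL final in Tris/HCl pH8 with KCl, BSA, glycerol and Tween-20, cleaved an Abz/nitrotyrosine-quenched decapeptide. Fluorescence (ex 320, em 430) was read at 0 and 20 min at room temperature. Delta was normalized to 5.8 microM ADEP and DMSO/no-enzyme controls.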
Active calls of the source: *; u = inconclusive; x = no result given; & = joins results of further samples; [ ] = remark or other dose.

item	SMILES	TRPV1 PAM	gsp agonist	Menin MLL FP FL	gsp antagonist	TRPML1 blocker	Sfp PPTase inh	ClpP mod
1	O=C(O)C1Cc2ccccc2CN1C(=O)c1ccco1 (configuration not stated)	4	-2%	6.4	10%	x	1%	1.1%
2	CCN1CCN(C(=S)c2ccc(-c3ccccc3)cc2)CC1	-15	u	-1.7	10%	29	22µM*	-3.7%
3	Nc1ncnc2c1ncn2[C@@H]1O[C@H](CNCc2ccccc2OC2OC(CO)C(O)C(O)C2O)[C@@H](O)[C@H]1O (some centres not stated)	x	x	x	1%	-7	x	3.4%
4	CC(C)C(C)(C#N)NC(=O)CSc1nc(C2CCCCC2)n(-c2ccccc2)n1 (configuration not stated)	10	13%	-1.8	u	-17	18%	-3.6%
5	CC1CCC(NC(=O)C2CC(O)CN2S(=O)(=O)c2ccc([N+](=O)[O-])cc2)CC1 (configuration not stated)	x	3%	x	8%	-7	x	1.4%
6	CC1CN(C(=O)c2cc(-c3ccc(Cl)s3)nc3ccccc23)CC(C)O1 (configuration not stated)	1	0%	x	7%	37	x	28µM*
7	COc1ccc2oc(C(=O)NCC(Cc3ccccc3)N(C)C)c(C)c2c1 (configuration not stated)	-4	-1%	-3.3	6%	-25	-1%	x
8	CC(/C=C/c1ccco1)=N\NC(=O)C(O)c1ccccc1 (configuration not stated)	-9	-15%	1.7	-10%	3	u	1.2%
9	CC(C)CCNC(=O)c1cnn2c(C(F)(F)F)cc(-c3ccco3)nc12	-12	u	14	-5%	4	50µM*	-12%
10	N/C(=N\OC(=O)c1cc([N+](=O)[O-])ccc1Cl)c1cccnc1	5	-2%[15.4 µM]	4.0	-12%	14	7%	-8.6%
11	O=C(NC(=S)N1CCN(Cc2ccc3c(c2)OCO3)CC1)c1cccc(Br)c1	10	-9%[15.4 µM]	6.1	-5%	1	6%	-4.6%
12	CSc1nc(C)c2c(n1)OC(CN1C(=O)c3ccccc3C1=O)C2 (configuration not stated)	15	x	-1.0	x	x	16%	x
13	COC(=O)C1=C(C)N(CCc2ccc(OC)cc2)C(=O)C1	11	-4%	-0.1	-11%	25	5%	-19%
14	O=C(NCc1ccco1)Nc1ccc2snnc2c1	x	8%	4.0	-10%	32	-6%	-23%
15	Cc1ccc(/S(C)=N/S(=O)(=O)c2ccc(C)cc2)cc1 (configuration not stated)	-5	19%	3.8	-2%[15.4 µM]	24	18%	-2.3%
16	NC(=O)CSc1nnc(-c2cccs2)n1Cc1ccco1	2	-5%	2.8	0%	-16	-18%	-1.4%
17	COc1ccccc1-n1nnnc1SCC(=O)N(CC(C)C)C1CCS(=O)(=O)C1 (configuration not stated)	-45	1%	x	5%	5	9%	-0.9%
18	O=C(COc1ccccc1[N+](=O)[O-])N/N=C/c1ccc(O)cc1	27	-7%	x	6%	-17	9%	-6.2%
19	CN(c1ccc(F)cc1)S(=O)(=O)c1ccc(Cl)c(C(=O)NCC2CCCO2)c1 (configuration not stated)	1	-79%[inhibitor]	x	10%	-2	x	-12%
20	O=C(c1ccc2c(c1)OCCCO2)c1cccs1	-18	18%	2.6	2%	-1	17%	6.0%
21	CC(=O)c1c(C)[nH]c(C(=O)N2CCCCCC2)c1C	2	-50%[inhibitor]	-2.0	28%	-12	5%	0.6%
22	Nc1ccc(Oc2c(Cl)cccc2Cl)nc1	2	0%	-1.5	-1%	-3	-6%	-11%
23	Cc1cc(Br)ccc1OCCNCc1ccccc1	27	-5%	0.1	-6%	-5	-5%	x
24	C[C@@H](NC(=O)Cn1ccc(NC(=O)OCc2ccccc2)nc1=O)c1cccc2ccccc12	-7	x	x	u	-8	x	-3.9%
25	O=C1c2ccccc2C(=O)N1CCc1nc(-c2cccnc2)no1	-3	23%	0.9	3%	10	20%	-0.1%
26	CCc1nnc(NC(=O)c2ccc(OCc3c(C)noc3C)c(OC)c2)s1	1	27%	0.9	-4%	18	4%	-3.8%
27	CC1(c2ccc(Cl)cc2)NC(=O)N(CC(=O)Nc2cccnc2Cl)C1=O (configuration not stated)	5	5%[15.4 µM]	x	9%	19	x	1.0%
28	Cc1oc(C(C)(C)C)cc1C(N)=O	20	3%[15.4 µM]	4.3	11%	-12	0%	x
29	CSc1nc2ccc(NC(=O)c3ccc(=O)n(C)n3)cc2s1	-25	-15%[15.4 µM]	1.4	-8%	-5	25%	x
30	COc1ccc(CS(=O)/C(Cl)=C(/Cl)C(=O)Nc2ccc(OC)nc2)cc1 (configuration not stated)	0	7%[15.4 µM]	0.5	3%	0	14µM*	x

Arranged by formula weight (ascending): part of the list above
item	SMILES	TRPV1 PAM	gsp agonist	Menin MLL FP FL	gsp antagonist	TRPML1 blocker	Sfp PPTase inh	ClpP mod
18	O=C(COc1ccccc1[N+](=O)[O-])N/N=C/c1ccc(O)cc1	27	-7%	x	6%	-17	9%	-6.2%
25	O=C1c2ccccc2C(=O)N1CCc1nc(-c2cccnc2)no1	-3	23%	0.9	3%	10	20%	-0.1%
30	COc1ccc(CS(=O)/C(Cl)=C(/Cl)C(=O)Nc2ccc(OC)nc2)cc1 (configuration not stated)	0	7%[15.4 µM]	0.5	3%	0	14µM*	x

The results go on:
item	SMILES	TRPV1 PAM	gsp agonist	Menin MLL FP FL	gsp antagonist	TRPML1 blocker	Sfp PPTase inh	ClpP mod
31	C=CCNC(=O)CN1CCC(NC(=O)c2ccco2)CC1	-1	-6%[15.4 µM]	-1.0	9%	-7	3%	x
32	COc1ccc(-n2cc(CNCCCn3ccnc3)c(-c3ccccc3Cl)n2)cc1	13	-32%[inhibitor]	-0.5	-16%	-1	5%	-0.8%
33	Cc1cc(O)ccc1NS(=O)(=O)c1ccc2c3c(cccc13)C(=O)N2	6	-15%	1.9	11%	-3	12%	x
34	O=C(O)c1ccccc1C=NNc1ccc([N+](=O)[O-])cn1	x	-4%	x	4%	21	x	x
35	CCOC(=O)C1CCN(C(=S)Nc2ccccc2)CC1	7	-14%	-1.5	8%	4	-11%	-2.0%
36	O=C(/C=C/c1ccc(Br)cc1)NCc1cccs1	-23	-1%	4.2	13%	-13	-2%	-0.6%
37	CN1CCN(C(=O)c2sc(=S)n(-c3ccccc3)c2N)CC1	-2	-25%	1.5	-3%	5	-94%	-2.0%
38	Cc1ccn(CCNC(=O)C2CCC(=O)N(CCc3ccc(Cl)cc3)C2)n1 (configuration not stated)	-15	u	x	-6%	6	8%	3.7%
39	Cc1ccc(S(=O)(=O)NCC(c2ccc3c(c2)OCO3)N2CCN(c3ccccc3)CC2)cc1 (configuration not stated)	5	0%[15.4 µM]	x	u	9	x	-0.7%
40	CC(C)Cc1nnc(NC(=O)C2CCN(C(=O)c3ccc(F)cc3)CC2)s1	-16	-30%[inhibitor]	x	2%	-11	x	0.7%
41	CCC(C)N1CCNCC1 (configuration not stated)	7	5%	0.0	0%	-20	9%	x
42	COc1cc(NC(=O)C/C(C)=N/NC(=O)C2CCCCC2)c(OC)cc1Cl	26	-1%	-3.1	-19%	-10	-7%	x
43	Cc1ccc(C2(C)NC(=O)N(CC(=O)Nc3ccccc3C(=O)N3CCCCC3)C2=O)cc1 (configuration not stated)	8	-2%	x	2%	4	x	-3.8%
44	Cc1ccc2c(c1)C(c1ccccc1)N(C(=O)c1ccc(Br)o1)CC(=O)N2 (configuration not stated)	1	9%	-1.9	-5%	-5	1%	-1.5%
45	Cc1ccc(/C=N/NC(=O)c2ccc3nc[nH]c3c2)o1	17	u	-7.6	-4%	13	6%	x
46	COc1ccc(Cl)cc1NC(=O)C(=O)NC1CCCCCC1	11	5%	3.7	-1%	10	7%	0.8%
47	NC(=O)c1ccc(NC(=O)CSc2nnc(-c3cccnc3)n2Cc2ccco2)cc1	2	u	11	-3%	u	5%	2.0%
48	CCOc1ccc(CCNC(=O)C2CCN(C(=O)N(C)C)CC2)cc1OCC	-8	-55%[inhibitor]	2.6	-36%	10	9%	0.1%
49	COCCCn1c(=O)c2sccc2n2c(CCCC(=O)NCc3ccc(F)cc3)nnc12	3	u	-1.4	-11%	-3&4	1%	-18%&-25%
50	O=C(COC(=O)c1ccc2ncsc2c1)Nc1ccc(Cl)cc1	-12	-53%	x	7%	18	x	-2.3%
51	COc1c(Cl)cc(Br)c(OC)c1C(=O)NC(=O)Nc1nc(C)cc(C)n1	1	-9%[15.4 µM]	-0.4	1%	3	12%	x
52	COc1ccc(-n2ccnc(SCC(=O)NCc3ccccc3Cl)c2=O)cc1	1	18%	-9.2	0%	18	12%	-18%
53	CC(=O)c1ccc(N(C)C)cc1	6	-76%[inhibitor]	3.4	-11%	-6	9%	-2.0%
54	Cc1c(C(=O)Cc2ccccc2)n(C)c2ccccc12	7	8%[15.4 µM]	0.9	-32%	9	-2%	-3.5%
55	CCOc1cc(S(=O)(=O)n2ccnc2)ccc1Cl	6	4%	-4.0	1%	-11	6%	x
56	COc1ccc2[nH]c(=O)c(C(=O)O)cc2c1	0	-3%[15.4 µM]	0.5	23%	-1	6%	x
57	S=C(Nc1ccccc1)N1CCc2ccccc21	-4	-33%[inhibitor]	-0.6	-4%	-2	5%	-1.4%
58	COc1ccc2c(c1)OC[C@H]1[C@H]2N2C(=O)c3ccc(F)cc3NC(=O)[C@@]2(C)[C@H]1c1ccccc1	x	x	x	-12%	8	x	u
59	CCCCc1ccc(NC(=S)NN2CCOCC2)cc1	2	-39%[inhibitor]	3.4	-2%	u	9%	-2.8%
60	O=C(NCCN1CCN(C(=O)c2cc3ccccc3oc2=O)CC1)c1cc2ccccc2oc1=O	1	14%	-1.4	-1%	-17	12%	u
61	Cc1noc(NS(=O)(=O)c2ccc(NC(=O)CSc3ncccn3)cc2)c1C	6	u	4.8	-3%	-11	28%	-1.2%
62	CN(C)S(=O)(=O)n1cc(/C=C(\NC(=O)c2ccccc2F)C(=O)NCCN2CCOCC2)c2ccccc21	x	-19%	x	x	3	x	-0.3%
